# GLA inh pH 4.5 – qHTS Assay for Inhibitors of Human alpha-Galactosidase at pH 4.5 | Alpha-galactosidase A (Homo sapiens), P06280 | purified enzyme, 4-MU-alpha-Gal fluorescence, pH 4.5 | 230,000 tested, under 10 active | activity change, negative = inhibition, % at 105 µM; inconclusive = small, poorly fitted or top-dose-only inhibition, or a rising curve; inactive = flat fitted curve, though single readings scatter; no compound was filed as active;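 also: 0% = full activity with enzyme and -100% = basal without enzyme; dose as in the result columns while the protocol names 77 µM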
# Target sequence (P06280 whole entry, looked up): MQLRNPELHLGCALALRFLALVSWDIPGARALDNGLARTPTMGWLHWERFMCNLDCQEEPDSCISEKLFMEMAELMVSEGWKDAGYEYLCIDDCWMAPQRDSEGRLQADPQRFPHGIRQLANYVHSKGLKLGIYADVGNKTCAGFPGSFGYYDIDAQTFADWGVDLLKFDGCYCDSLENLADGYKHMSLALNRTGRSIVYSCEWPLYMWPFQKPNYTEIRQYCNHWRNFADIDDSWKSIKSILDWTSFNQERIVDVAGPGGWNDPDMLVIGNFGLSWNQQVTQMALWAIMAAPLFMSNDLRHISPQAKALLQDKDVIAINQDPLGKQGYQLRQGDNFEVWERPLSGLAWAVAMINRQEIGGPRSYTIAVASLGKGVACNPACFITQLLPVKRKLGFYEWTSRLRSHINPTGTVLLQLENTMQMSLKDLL
# Rango complex inh – qHTS Assay for Inhibitors of Rango (Ran-regulated importin-beta cargo) - Importin beta complex formation. Importin subunit beta-1 (Homo sapiens), Q14974. Rango CFP/YFP FRET sensor + importin beta, 45 min. Potency, µM (highest dose often 92.2 µM), inactives show top-dose inhibition of complex formation. hit rate 0.031% among 340,000; active = rising FRET ratio curve, often small or poorly fitted; inconclusive = mostly compound fluorescence or quenching in the first reads; inactive = flat curves in all reads;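 also: potency is read from the fitted curve at half-maximal effect; 0% = DMSO wells and 100% = buffer wells lacking importin beta; nearly all actives have a fitted effect of over 15% in size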
#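 FRET biosensor Rango (snurportin 1 IBB between N-terminal EYFP and C-terminal Cerulean), 50 nM in PBS/1 mM DTT/0.02% Tween-20/0.1% BSA, preincubated 5 min RT with compound; 0.125 microM importin beta added, 45 min RT, CFP/YFP FRET ratio read.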
# Rango dissoc inh – qHTS Assay for Inhibitors of RanGTP induced Rango (Ran-regulated importin-beta cargo) - Importin beta complex dissociation. Snurportin-1 (Homo sapiens) + GTP-binding nuclear protein Ran (Homo sapiens) + Importin …. Biochemical FRET Rango-importin beta, RanGTP-induced dissociation. Potency, µM (series often up to 46.1 µM), inactives show top-dose activity change, negative = inhibition. hit rate 0.071% among 340,000; active means falling FRET ratio curve, often poorly fitted, with flat reads before Ran was added; inconclusive means other falling curves, or compound fluorescence or quenching; inactive means flat or rising ratio curve;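 also: potency is read from the fitted curve at half-maximal effect; % of control where 0% means no effect; nearly all actives have a fitted effect of over 45% in size; -100% = wells without RanGTP and RCC1; the record marks most hits as doubtful in a second field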
#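 Rango FRET biosensor (snurportin-1 IBB flanked by N-terminal EYFP and C-terminal CFP10) at 0.1 uM, with 0.25 uM importin beta in PBS, 1mM DTT, 0.02% Tween-20, 0.1% BSA. 0.6 uM Ran, 2mM GTP and 0.2 uM RCC1 were then added for 45 min at room temperature. Inhibition read as loss of FRET rise.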
# miR-21 reporter – qHTS Assay for Modulators of miRNAs and/orActivators of miR-21 | Potency, µM (highest dose often 38.3 µM), inactives show top-dose reporter change, positive = more light | AID 2288, 2010 | 340,000 tested, under 10 active | HeLa miR-21 FLuc reporter, luciferase, 48 h; active = well fitted rising curve with a large enough effect; inconclusive = small, poorly fitted or top-dose-only effect; inactive = no such curve, though single readings can be large or run the other way;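 also: % of control where 0% means no effect; miR-21 action dims this reporter so a rising signal means less miR-21 action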
#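 HeLa cells endogenously expressing miR-21, stably carrying CMV-driven firefly luciferase with a downstream miR-21 binding site, 2000 cells/well. Titrations up to approximately 40 uM, 48 hours; luciferase luminescence read.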
# * = called active by the depositor; ? = inconclusive; . = not tested or not shown; & = joins results of further samples. Some of the compounds tested, so the mix of outcomes need not match the whole.
SMILES,GLA inh pH 4.5,Rango complex inh,Rango dissoc inh,miR-21 reporter
CS(=O)(=O)N1CCC(C(=O)N2CCN(c3cccc(Cl)c3)CC2)CC1,-1,-0.4%,1%,2%
CCN(CC)S(=O)(=O)c1ccc(OCC(=O)NC2CCS(=O)(=O)C2)c([N+](=O)[O-])c1 (stereo not given),-3,-2.1%,10%,2%
CC1=CCC2C(=O)N(c3ccc(OC(=O)c4ccco4)cc3)C(=O)C2C1 (stereo not given),5,-3.1%,-9%,-3%
CS(=O)(=O)Nc1ccc(-c2nnc3n2CCCCC3)cc1,.,3.7%,0%,0%
COc1ccc(-c2c(C#N)c(N)nc3c2CCc2ccccc2-3)cc1OC,?,-0.6%,-6%,10%
Cc1nnc(NC(=O)CSc2ccc(-c3ccccn3)nn2)s1,-22,.,.,-9%
O=C(Cc1ccc(Cl)cc1Cl)Nc1ccc(OC(F)F)c(Cl)c1,0,-1.2%,7%,3%
Cc1ccc(S(=O)(=O)CC(=O)NCc2ccccc2)cc1,.,-0.4%,-19%,-4%
C[C@@H](C(=O)NNC(=O)c1ccc(Cl)cc1)N1C(=O)C2CC=CCC2C1=O (stereo not given in full),.,1.8%,-10%,.
CN(C)/C=C/C(=O)c1ccccc1,-2,5.5%,-18%,-19%
CC(=O)c1ccc(N2CCN(S(=O)(=O)c3ccc(-c4cc(C)no4)s3)CC2)cc1,.,0.1%,14%,0%&-1%
O=C1CCC(C(=O)OCc2nnc(-c3ccccc3)o2)=NN1,.,-3.7%,12%,.
N#C/C(=C\c1c[nH]c2ccc(Br)cc12)c1ccccn1,.,?,?,20%
CCCCOC(=O)c1ccc(NC(=O)c2cc(Cl)ccc2OC)cc1,-12,-1.6%,-2%,-5%
O=Cc1cccn1Cc1ccc(Cl)cc1Cl,9,-7.8%,11%,-7%
COc1ccc(S(=O)(=O)N2CCCN(S(=O)(=O)c3ccc(OC)c(C)c3)CC2)cc1C,-6,?,37%,5%
Cc1ccc2cc(C#N)c(NCCCNC(=O)C3CCCO3)nc2c1 (stereo not given),19,?,?,-21%
Cc1ccccc1-c1nc(CS(=O)CC(=O)NC2CCCC2)c(C)o1 (stereo not given),.,-0.9%,5%,-2%
CCOc1cc(NC(=S)NCC(C)C)c(OCC)cc1NC(=O)c1ccco1,-2,?,-25%,-6%
CCOC(=O)C1=NNC(C(=O)O)C1c1ccccc1 (stereo not given),.,1.0%,-12%,.
Oc1ccc(Br)cc1CN1CCCCCCC1,-2,?,2%,-3%
Cc1ccc(NC(=O)CN(C)C(=O)c2ccc(C(F)(F)F)cc2)cc1,-2,0.2%,-8%,-15%
Nc1c(CO)nnn1-c1ccccc1,6,0.7%,-3%,-2%
COc1ccc(C(=O)Nc2ccc(F)cc2F)cc1,4,-0.5%,-4%,-49%
O=C(COc1ccc(Cl)cc1Cl)NNC(=S)Nc1ccc(F)cc1,15,1.6%,2%,-9%
CCN1CCN(c2ccc(NC(=O)c3ccc(OC)c(S(=O)(=O)N4CCCC4)c3)cc2)CC1,.,-1.1%,10%,.
O=C1OCC(c2ccc(Cl)s2)=C1c1ccccc1[N+](=O)[O-],.,-0.9%,-1%,7%
Cc1cccc(C(=O)NNC(=O)C2CCN(C(=O)OC(C)(C)C)CC2)c1,.,1.5%,7%,-4%
COc1ccc(C(NC(C)=O)c2cc(Cl)c3cccnc3c2O)cc1OC (stereo not given),5,2.7%,-3%,19%
NC(=S)NNc1c(F)c(F)c(F)c(F)c1F,-3,-4.8%,1%,18%
O=C1CN(C(=S)NC(=O)c2ccccc2[N+](=O)[O-])CCN1,.,-4.5%,0%,-2%
Cc1[nH]cnc1C(=O)N/N=C/c1ccc([N+](=O)[O-])s1,.,0.8%,-4%,?
COc1cc(NC(=O)C2CCCN(S(=O)(=O)c3cccc4nsnc34)C2)cc(OC)c1 (stereo not given),4,-1.4%,-2%,24%
NC1=NC(c2ccccc2)CC(=O)N1 (stereo not given),.,?,-3%,.
CCOC(=O)C1(Cc2cccc(OC)c2)CCN(Cc2cccc(OCC)c2O)CC1,-15,-3.6%,1%,1%
O=C(NCc1ccncc1)Nc1cc(Cl)ccc1Cl,7,-0.1%,-3%,-4%
OC(c1ccc(Cl)cc1)c1nnc(-c2ccccc2)o1 (stereo not given),4,2.5%,16%,-41%
C=CCNCCCCOc1cccc(Br)c1,7,4.2%,2%,3%
CCc1nnc(NS(=O)(=O)c2ccc(NC(=S)NC(=O)/C=C/c3cccs3)cc2)s1,-2,0.3%,-10%,-3%
CCCc1noc2c1/C(=N\O)CC(c1ccccc1)C2 (stereo not given),-11,-0.4%,-7%,-32%
CC[C@@H]1C(c2ccc(F)cc2)=NN(c2ccc(Br)cc2)[C@H]1C(=O)N1CCOC1=O,-1,-1.9%,-12%,.
O=C(O)CNC(=O)CCn1nnc2ccccc2c1=O,-5,-0.7%,-8%,2%
O=C(NNC(=O)c1ccccc1F)c1ccc(Cl)c(S(=O)(=O)N2CCOCC2)c1,.,3.0%,13%,.
COc1ccc(C(=O)NC(=S)NNC(=O)CCc2ccccc2)cc1,9,0.9%,8%,11%
c1csc(-c2cc(N3CCCCC3)c3ccccc3n2)c1,.,-0.9%,-7%,2%
O=C(Cc1ccc(Cl)cc1Cl)Nc1ccncc1Cl,.,-1.1%,2%,13%
CCc1nnc(NC(=O)C2Cc3ccccc3CN2S(=O)(=O)c2ccc(C)cc2)s1 (stereo not given),-1,-0.6%,2%,-41%
N#Cc1cccnc1Oc1ccccc1,5,-0.2%,-9%,-3%
CC(=O)c1cc2c(cc1NC(=O)Cc1ccsc1)OCO2,.,-4.8%,6%,.
O=C(COc1ccc2c3c(c(=O)oc2c1)CCCC3)NCCCN1CCCC1=O,.,-0.1%,-4%,-7%
CCCCN(C)C(=O)c1oc2ccc(S(=O)(=O)N3CCCCCC3)cc2c1C,-5,5.1%,7%,-1%
CCc1cc(CNC(=O)CCc2nnc(CCCc3ccccc3)o2)on1,6,-1.5%,16%,-62%
CC/C(O)=C(\C#N)c1nnc2n1CCCCC2,7,-5.4%,-6%,1%
O=[N+]([O-])c1cccc(-c2nnnn2-c2cccc(F)c2)c1,.,-0.4%,-1%,.
O=C(CSc1cc(Cl)ccc1Cl)NC1CC1,.,-4.0%,-5%,.
COc1ccc(OC)c(S(=O)(=O)N2CCN(CC(O)CN3CCOCC3)CC2)c1 (stereo not given),.,1.7%,-12%,.
COc1ccc(N=C2S/C(=C\c3ccco3)C(=O)N2CC(C)C)cc1,1,-1.3%,11%,-5%
C/C(=N\NC(=O)c1cccnc1)c1ccc(-n2ccnc2)cc1,8,0.0%,4%,-4%
N#C/C(=C\c1ccc(-c2ccc([N+](=O)[O-])cc2Br)o1)C(=O)N1CCN(c2ccccc2)CC1,-4,0.6%,7%,0%
COCCn1nnnc1CN1CCN(c2cccc(C(F)(F)F)c2)CC1,10,-2.3%,-7%,-7%
# The listing continues.
SMILES,GLA inh pH 4.5,Rango complex inh,Rango dissoc inh,miR-21 reporter
COc1ccc(NC(=O)CSc2nnnn2C2CC2)cc1S(=O)(=O)N1CCOCC1,.,3.9%,-16%,.
COc1ccc(C(C)=NNc2ccc([N+](=O)[O-])cc2S(=O)(=O)Nc2ccccc2C(=O)O)c(OC)c1,.,?,?,.
O=C(NCC1CC1)c1cc([N+](=O)[O-])cc([N+](=O)[O-])c1,.,2.0%,16%,0%
Nc1ccn([C@H]2CS[C@@H](CO)O2)c(=O)n1,.,5.8%,0%,.
Cc1ccc(NC(=O)CCC(=O)NNC(=O)/C=C/C(=O)O)c(C)c1,1,-0.4%,-3%,-4%
COc1ccc(C2C3=C(CC(C)(C)CC3=O)Oc3ncn(CCO)c(=N)c32)cc1OC (stereo not given),3,?,?,-7%
CC1(C)CC2=C(CO1)C(=S)NC(c1ccccc1)N2CC1CCCO1 (stereo not given),-10,?,-21%,-1%
CC(=O)c1ccc(S(=O)(=O)Oc2ccc(C(=O)O)cc2Cl)cc1,.,-0.2%,0%,.
Cn1ncc2c1ncn1nc(COc3ccc4ccccc4c3)nc21,4,0.2%,0%,3%
COc1ccc(CNC(=O)C[C@H]2C[C@H](C(=O)N3CCCCC3)[C@@]3(C)c4[nH]c5cc(-c6ccco6)ccc5c4CCN3C2=O)cc1OC,.,?,-8%,.
CCOC(=O)C1CCN(CC(C)(C)NS(=O)(=O)c2ccc(C)cc2)CC1,.,3.0%,7%,13%
CC(NC(=O)C12CC3CC(C)(CC(C)(C3)C1)C2)c1ccncc1 (stereo not given),.,4.9%,7%,0%
O=C(O)c1ccc(N=NN2CCCCCC2)cc1,-5,-3.6%,0%,-42%
Nc1c(N(CCO)C(=O)C2CCCC2)c(=O)[nH]c(=O)n1Cc1ccccc1,.,6.5%,4%,.
CC(C)CN(C(=O)CCc1ccccc1)c1c(N)n(CC(C)C)c(=O)[nH]c1=O,2,0.3%,-20%,-1%
O=C(Nc1ccccc1)c1ccc(NCC2CCCO2)c(S(=O)(=O)N2CCOCC2)c1 (stereo not given),-5,2.0%,-10%,-8%
CCOc1ccccc1NC(=O)COC(=O)CCOc1cc(C)ccc1C,.,-1.6%,-3%,.
CCCC(NC(=O)c1c(C)noc1C)C12CC3CC(CC(C3)C1)C2 (stereo not given),5,0.6%,1%,-3%
Cc1ccc(C(=O)N2CCN(c3cc(=O)[nH]nc3-c3ccccc3)CC2)cc1,-4,3.0%,9%,-6%
Cc1cc(C)n2nc(SCc3ccccc3C(=O)O)nc2n1,.,-2.0%,0%,-1%
O=C1CSC(c2ccccc2F)N1 (stereo not given),15,3.6%,-15%,6%
CCC(C(=O)Nc1cccc(OC)c1)n1nc(C)c2c(C)n(-c3ccccc3)nc2c1=O (stereo not given),.,-0.7%,9%,-1%
O=C(NCC(=O)N(c1cccnc1)C(C(=O)NC1CCCC1)c1ccccc1)c1ccco1 (stereo not given),-8,0.6%,3%,-3%
NCCNc1ccc([N+](=O)[O-])c(Sc2nc3ccccc3[nH]2)c1,-8,3.3%,10%,1%
COc1ccc(CC(=O)NNC(=O)CCc2ccccc2)cc1,13,-1.1%,1%,-2%

# Fetched by compound from above (three):
SMILES,GLA inh pH 4.5,Rango complex inh,Rango dissoc inh,miR-21 reporter
Oc1ccc(Br)cc1CN1CCCCCCC1,-2,?,2%,-3%
Cc1ccccc1-c1nc(CS(=O)CC(=O)NC2CCCC2)c(C)o1 (stereo not given),.,-0.9%,5%,-2%
CCCCOC(=O)c1ccc(NC(=O)c2cc(Cl)ccc2OC)cc1,-12,-1.6%,-2%,-5%

# In another format: entries from further up
canonical_smiles	GLA inh pH 4.5	Rango complex inh	Rango dissoc inh	miR-21 reporter
O=C1CSC(c2ccccc2F)N1 (stereo not given)	15	3.6%	-15%	6%
CCC(C(=O)Nc1cccc(OC)c1)n1nc(C)c2c(C)n(-c3ccccc3)nc2c1=O (stereo not given)	.	-0.7%	9%	-1%
O=C(NCC(=O)N(c1cccnc1)C(C(=O)NC1CCCC1)c1ccccc1)c1ccco1 (stereo not given)	-8	0.6%	3%	-3%
NCCNc1ccc([N+](=O)[O-])c(Sc2nc3ccccc3[nH]2)c1	-8	3.3%	10%	1%
COc1ccc(CC(=O)NNC(=O)CCc2ccccc2)cc1	13	-1.1%	1%	-2%
